Bioassay records from PubChem.
Marburg entry inh: qHTS for inhibitors of binding or entry into cells for Marburg Virus. Marburg virus pseudotyped entry inhibition, cell reporter; control for the full effect not named in the record; about a third of the inactives were read at about 46 µM. Potency, µM (highest dose often 37.8 µM), for inactives: at the highest dose activity change, negative = inhibition, hits mostly inhibitors. actives 1.8% (n = 300,000). AID 540276, 2011; active = well fitted inhibition curve with a large enough effect; inconclusive = small, poorly fitted or top-dose-only effect, or effect the other way; inactive = flat fitted curve, though single readings scatter; tested in HEK293 cells; about a fifth of its hits are not listed in these tables; further: on the % scale 0 is the no-effect control and ±100 the full control effect; luciferase read-out
RE007 growth inh: qHTS Assay for Inhibitors of the HIV-1 protein Vpr; S. pombe RE007 Vpr strain, BacTiter-Glo ATP luminescence, 24 h; control for the full effect not named in the record; Potency, µM (highest dose often 92.2 µM), without a hit: top-dose activity change, negative = less growth; actives 0.21% (n = 360,000); active = well fitted falling curve with a large enough effect; inconclusive = small, poorly fitted or top-dose-only effect; inactive = no such curve, though single readings can be large or run the other way;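 further: on the % scale 0 is the no-effect control and ±100 the full control effect; nearly all actives have a fitted effect of over 50% in size; the assay follows cell death caused by Vpr and the record does not say whether a fall means rescue or toxicity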
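Fission yeast strain RE007, carrying one chromosomally integrated HIV-1 vpr copy, was seeded at OD 0.01 in PMG+AL medium with 23 nL pinned compound. After 24 h at 30 °C and 99% humidity, viability was read by BacTiter-Glo luminescence.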
Cruzain inh noDet: qHTS Assay for Promiscuous and Specific Inhibitors of Cruzain (without detergent); Cruzipain (Trypanosoma cruzi), P25779; purified cruzain, Z-FR-AMC fluorescence, no detergent; Potency, µM, for inactives: max response, negative = inhibition, hits mostly inhibitors; actives 2.3% (n = 200,000); active means well fitted curve in the direction sought with a large enough effect; inconclusive means small, poorly fitted or top-dose-only effect, or another doubt; inactive means no such curve, though single readings can be large; an effect the other way counts as inactive or inconclusive;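 further: plate controls were enzyme without inhibitor for no effect and buffer without enzyme for full effect; nearly all actives have a fitted effect of over 40% in size; top concentration of the series not given in the record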
Target sequence (P25779 123-467 limits assumed): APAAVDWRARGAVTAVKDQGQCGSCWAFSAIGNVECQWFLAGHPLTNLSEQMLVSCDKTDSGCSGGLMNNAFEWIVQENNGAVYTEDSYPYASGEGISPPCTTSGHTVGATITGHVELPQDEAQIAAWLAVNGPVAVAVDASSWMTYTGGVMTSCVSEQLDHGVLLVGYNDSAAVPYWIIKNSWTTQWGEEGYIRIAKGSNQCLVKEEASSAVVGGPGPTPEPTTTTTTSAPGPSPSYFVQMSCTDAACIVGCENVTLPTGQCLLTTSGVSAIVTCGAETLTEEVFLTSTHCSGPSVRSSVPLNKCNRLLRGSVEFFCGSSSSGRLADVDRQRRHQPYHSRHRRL
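Detergent-free condition (0.00005% Triton X-100) in acetate buffer pH 5.5 with DTT. 1.5 nM enzyme and compound were pre-mixed 15 min, then 2 uM Z-FR-AMC substrate added; reaction progress from fluorescence change between first and third reads (60 s).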
StopGo reporter: High Throughput Screening for Foot and Mouth Disease Virus Antivirals; AID 1159524, 2015; human cells with a luciferase reporter of 2A StopGo recoding; control for the full effect not named in the record; Potency, µM (highest dose often 57.9 µM), for the others: top-dose signal change, negative = less light; actives 1.2% (n = 410,000); active = well fitted falling curve with a large enough effect; inconclusive = small, poorly fitted or top-dose-only effect; inactive = no such curve, though single readings can be large or run the other way; tested in HEK293T cells; further: on the % scale 0 is the no-effect control and ±100 the full control effect; nearly all actives have a fitted effect of over 45% in size; luciferase light after 4 h
NS1 inh: qHTS Assay for Inhibitors of Influenza NS1 Protein Function | S. cerevisiae slowed by influenza A NS1, growth recovery by OD600 | Potency, µM (highest dose often 46.1 µM), for inactives: top-dose activity, positive = more growth | actives 0.4% (n = 270,000); further: actives are rising curves; nearly all actives have a fitted effect of over 50% in size
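OD600 was taken as the measure of yeast growth restored by compound in an NS1-expressing S. cerevisiae strain. Cells had been washed out of glucose medium and diluted 1:100 into galactose -URA medium, pH 6.0.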
SARS PLpro yeast: qHTS of Yeast-based Assay for SARS-CoV PLP | S. cerevisiae expressing SARS-CoV PLpro, growth rescue; control for the full effect not named in the record | Potency, µM (series often up to 32.9 µM), inactives show at the top dose activity, positive = growth rescue | actives 0.19% (n = 330,000); further: 0% is about no effect; nearly all actives have a fitted effect of over 55% in size; growth read by luminescence after 48 h
Cruzain inh Det: qHTS Assay for Promiscuous and Specific Inhibitors of Cruzain (with detergent); Cruzipain (Trypanosoma cruzi), P25779; purified cruzain, Z-FR-AMC fluorescence, 0.01% Triton; Potency, µM, inactives show max response, negative = inhibition, usual class: inhibitors; actives 0.43% (n = 200,000); active means well fitted curve in the direction sought with a large enough effect; inconclusive means small, poorly fitted or top-dose-only effect, or another doubt; inactive means no such curve, though single readings can be large; an effect the other way counts as inactive or inconclusive;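 further: plate controls were neutral wells for no effect and buffer without enzyme for full effect; nearly all actives have a fitted effect of over 40% in size; top concentration of the series not given in the record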
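Steps: dispense cruzain (1.5 nM final) in acetate buffer pH 5.5 with DTT and 0.01% Triton X-100; pin-transfer compounds; incubate 15 min RT; add Z-FR-AMC (2 uM final); read fluorescence every 30 s, using the 60 s intensity change.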
Lassa entry inh: qHTS for Inhibitors of binding or entry into cells for Lassa Virus. Lassa virus pseudotype entry inhibition, cell reporter; control for the full effect not named in the record. Potency, µM (series often up to 37.9 µM), for the others: at the top dose activity change, negative = inhibition, most hits filed as inhibitors. actives 1.2% (n = 300,000); active means well fitted inhibition curve with a large enough effect; inconclusive means small, poorly fitted or top-dose-only effect, or effect the other way; inactive means flat fitted curve, though single readings scatter; tested in HEK293 cells; further: on the % scale 0 is the no-effect control and ±100 the full control effect; nearly all actives have a fitted effect of over 50% in size; luciferase read-out
Active calls of the source: *; ? = inconclusive; . = not tested or not shown; & = joins results of further samples; [ ] = dose if it differs, or a comment. Unless noted, the call rests on the fitted dose curve; in most records, active means well fitted rising curve with a large enough effect; inconclusive means small, poorly fitted or top-dose-only effect; inactive means no such curve, though single readings can be large or run the other way. Potency means the concentration at half of the fitted maximal effect. Rows are unselected; overall some 4.6% were active at least once.

Preview, nine compounds:
Molecule | Marburg entry inh | RE007 growth inh | Cruzain inh noDet | StopGo reporter | NS1 inh | SARS PLpro yeast | Cruzain inh Det | Lassa entry inh
Cc1ccc(NS(=O)(=O)c2cccc([N+](=O)[O-])c2)nc1 | 18%[46.1 µM] | -15% | . | 52%[activator] | . | -2% | . | 5%
O=C(O)/C=C\C(=O)Nc1cccc(NC(=O)c2ccccc2)c1 | 1%[46.1 µM] | 9% | . | -6% | 7% | 0% | . | 7%[46.1 µM]
COc1ccc(-c2ccc3nnc(SCC(=O)NCC4CCCO4)n3n2)cc1 (stereo not given) | -1% | 15% | . | -3% | . | 4% | . | 0%
Cc1ccc(CNC(=O)c2cccnc2Cl)cc1 | 3%[46.1 µM] | 13% | . | 8% | 1% | -6% | . | ?
COc1ccc(CN(CC(=O)NCC2CCCO2)C(=O)CCC(=O)Nc2cc(C)on2)cc1 (stereo not given) | 30% | -6% | 0% | 23% | 0% | -9% | -0.9% | 20%
CC(C)CC1=NN(C(=O)c2ccco2)C(O)(C(F)(F)F)C1 (stereo not given) | 5%[46.1 µM] | 7% | . | -1% | 5% | 0% | . | -8%[46.1 µM]
CC(C)c1nc2sc3c(NCc4ccccc4)ncnc3c2c2c1COC(C)(C)C2 | 18% | 8% | 26% | -3% | 9% | -1% | -8.3% | 20%
O=C(c1ccc2c(c1)OCCCO2)N1CCCCC1 | . | -7% | . | 50%[activator] | 3% | -1% | . | .
O=C(Nc1cccc(S(=O)(=O)N2CCCCCC2)c1)C1CCN(C(=O)c2ccc(Cl)cc2)CC1 | ? | -13% | . | ? | . | . | . | ?

Main list (from the top)
Molecule | Marburg entry inh | RE007 growth inh | Cruzain inh noDet | StopGo reporter | NS1 inh | SARS PLpro yeast | Cruzain inh Det | Lassa entry inh
Cc1ccc(NS(=O)(=O)c2cccc([N+](=O)[O-])c2)nc1 | 18%[46.1 µM] | -15% | . | 52%[activator] | . | -2% | . | 5%
O=C(O)/C=C\C(=O)Nc1cccc(NC(=O)c2ccccc2)c1 | 1%[46.1 µM] | 9% | . | -6% | 7% | 0% | . | 7%[46.1 µM]
COc1ccc(-c2ccc3nnc(SCC(=O)NCC4CCCO4)n3n2)cc1 (stereo not given) | -1% | 15% | . | -3% | . | 4% | . | 0%
Cc1ccc(CNC(=O)c2cccnc2Cl)cc1 | 3%[46.1 µM] | 13% | . | 8% | 1% | -6% | . | ?
COc1ccc(CN(CC(=O)NCC2CCCO2)C(=O)CCC(=O)Nc2cc(C)on2)cc1 (stereo not given) | 30% | -6% | 0% | 23% | 0% | -9% | -0.9% | 20%
CC(C)CC1=NN(C(=O)c2ccco2)C(O)(C(F)(F)F)C1 (stereo not given) | 5%[46.1 µM] | 7% | . | -1% | 5% | 0% | . | -8%[46.1 µM]
CC(C)c1nc2sc3c(NCc4ccccc4)ncnc3c2c2c1COC(C)(C)C2 | 18% | 8% | 26% | -3% | 9% | -1% | -8.3% | 20%
O=C(c1ccc2c(c1)OCCCO2)N1CCCCC1 | . | -7% | . | 50%[activator] | 3% | -1% | . | .
O=C(Nc1cccc(S(=O)(=O)N2CCCCCC2)c1)C1CCN(C(=O)c2ccc(Cl)cc2)CC1 | ? | -13% | . | ? | . | . | . | ?
NNC(=O)c1[nH]c2ccc(Cl)cc2c1-c1ccccc1 | ? | -5% | . | -5% | 14% | -2% | . | ?
CNC(=O)c1sc(-c2ccc(Cl)cc2)nc1C | -14% | -4% | -7% | 63%[activator] | -20% | . | -1.2% | ?
CC(C)Cc1nc2sc3c(SCC(N)=O)ncnc3c2c2c1CCC2 | . | 25% | . | -2% | -3% | -1% | . | .
CCCCc1ccc(S(=O)(=O)Nc2cc(C)on2)cc1 | -2% | 4% | -9% | . | -51% | -21% | -2.2% | 1%
O=C(O)CCC(=O)Nc1ccc(SSc2ccc(NC(=O)CCC(=O)O)cc2)cc1 | 10% | 4% | . | -6% | -4% | 4% | . | ?
CC(=O)N1CCOc2ccc(S(=O)(=O)N3CCC(C(=O)NCc4ccc(C)cc4)CC3)cc21 | ? | 17% | . | -13% | -9% | 0% | . | 8%[46.1 µM]
Cc1ccc2n(n1)c(=O)c(Cc1ccccc1)c([O-])[n+]2-c1ccccc1 | 4% | 16% | -6% | 2% | 1% | 28% | -4.9% | -2%
CCCC(=O)NCCc1nc2ccccc2n1CC(=O)c1ccccc1 | 3% | -13% | 1% | 2% | -4% | 18% | -6.1% | -9%
Cc1cccc(C)c1OCCN1CCCC1 | . | 23% | . | -7% | 1% | -7% | . | .
OCC1(Cc2ccccc2)CCN(C2CCN(c3ccc(F)c(F)c3)CC2)CC1 | ? | 2% | . | -17% | -3% | 0% | . | -11%
CCOc1ccc(N(CC(=O)Nc2ccc(C)c(C)c2)S(=O)(=O)c2c(C)[nH]c(=O)[nH]c2=O)cc1 | 4%[46.1 µM] | 9% | . | 10% | -11% | 1% | . | 3%
COc1ccc(/C=C/CN2CCC(CO)(Cc3ccccc3Cl)CC2)cc1 | ? | 6% | . | -18% | 3% | 0% | . | -12%
O=C(CCN1C(=O)c2ccccc2S1(=O)=O)NCc1ccccc1Cl | 9% | ? | . | 17% | . | 5% | . | 2%
CC1CCCN(Cc2nc3c(c(=O)n(C)c(=O)n3C)n2CCCc2ccccc2)C1 (stereo not given) | ? | 14% | -9% | ? | -10%&-11% | -1% | 2.2% | ?
Cc1sc2ncnc(N3CCC(C(=O)N(C)CC(=O)Nc4ccccc4Cl)CC3)c2c1C | ? | -8% | . | 22µM* | -17% | 1% | . | 10µM*
CN(Cc1ccccc1)C(=O)CSc1n[nH]c(N)n1 | 11%[46.1 µM] | 1% | . | -2% | 5% | 2% | . | 2%
Cc1c(C#N)c(O)n(CCO)c(=O)c1N=Nc1ccc2c(c1)COC2=O | 17% | -12% | . | 8% | 6% | 5% | . | 6%
CCc1ccc(NC(=O)CSc2nnc(-c3cnccn3)n2C)cc1 | . | 6% | . | 8% | 20% | 2% | . | .
CN(C)CCCOC(=O)c1ccc(Br)cc1 | -13% | -4% | -10% | -4% | -28% | 2% | 1.3% | -9%
CCOC(=O)/C(C#N)=C/c1cn(CCC(=O)O)nc1-c1ccc(Br)cc1 | 11%[46.1 µM] | -16% | . | -18% | . | -2% | . | -3%
COc1nc(OC)nc(N2CCC(C(=O)Nc3cccc4ccccc34)CC2)n1 | -23% | 8% | 7% | -3% | -14% | 0% | 6.1% | 11%
COc1ccc(NC(=O)c2cccnc2)cc1 | ? | -15% | . | 21% | 6% | -8% | . | 26%[46.1 µM]
COc1cccc(NC(=O)c2ccc3snnc3c2)c1 | -14% | -2% | -10% | 25% | 2% | -27% | -5.5% | 15%
Cc1ccc(NC(=O)NCc2cccnc2)cc1C | -15%[46.1 µM] | -6% | . | 1% | -9% | 4% | . | 22%[46.1 µM]
O=C(NCCCn1ccnc1)c1nn2c(C(F)(F)F)cc(-c3ccccc3)nc2c1Cl | ? | 1% | . | -18% | . | -5% | . | 3%
CCCCCn1c(=O)c(C(=O)Nc2c(C)n(C)n(-c3ccccc3)c2=O)c(O)c2ccccc21 | 21%[46.1 µM] | 11% | 0% | -10% | 18% | 1% | -4.1% | -24%
O=C(Nc1cccc2cccnc12)c1cc(F)c(F)cc1Cl | 7%[46.1 µM] | -10% | . | 34%[activator] | -11% | 0% | . | -14%[46.1 µM]
O=C(COc1ccccc1)OCC(=O)N1CCCc2ccccc21 | 25% | 18% | . | -5% | . | -1% | . | 12%
CCOc1ccc(OCCC(=O)N2CCc3cc(OC)c(OC)cc3C2)cc1 | ? | -9% | . | 29% | -25% | 10% | . | 13%[46.1 µM]
C=CCNC(=O)C1CCN(c2nc(C)cc(-c3ccccc3)n2)CC1 | 7% | 9% | 17% | 38%[activator] | -38% | -2% | 0.0% | ?
COCCCNC(=O)c1cc(Sc2ccc(F)cc2)nc2ccccc12 | -15% | -17% | 12% | -21% | -13% | 13% | -1.3% | -8%
O=C(NC1CCN(Cc2ccccc2)CC1)c1ccc(CS(=O)c2ccc(F)cc2)o1 (stereo not given) | . | -3% | . | -1% | 9% | -3% | . | .
CCN(c1ccccc1)S(=O)(=O)c1ccc(NC(=O)c2nc(SC(C)C)ncc2Cl)cc1 | ? | . | -27% | -17% | . | . | -4.2% | ?
Cc1nn(-c2cccc([N+](=O)[O-])c2)c(N)c1-c1ccccc1 | ? | -5% | . | 20% | . | -3% | . | -2%[46.1 µM]
O=C(CSc1nnc(CNC(=O)c2c(F)cccc2Cl)o1)Nc1ccccc1 | ? | 16% | -5% | -14% | -3% | 9% | 8.1% | 2%
Cc1ccc(CN(C(=O)c2ccco2)C2CCS(=O)(=O)C2)cc1 (stereo not given) | . | 11% | . | -15% | -3% | -4% | . | .
N#Cc1cc([N+](=O)[O-])ccc1N1CCCC1 | ? | -2% | -23% | ? | -4% | 11% | -8.7% | -12%
Cc1c(-c2ccccc2)oc2c(C(=O)N3CCN(c4ccc([N+](=O)[O-])cc4)CC3)cccc2c1=O | -27% | -1% | ? | -25% | ? | -17% | -10% | -1%
Cc1ccc(NS(=O)(=O)c2ccc(C(C)(C)C)cc2)cn1 | . | 3% | . | 84%[activator] | 0% | -2% | . | .
CCCC(=O)N1CCc2cc(OC)c(OC)cc2C1COc1ccc2c(C)cc(=O)oc2c1 (stereo not given) | -4%[46.1 µM] | . | -4% | -29% | . | . | 3.1% | 2%[46.1 µM]
COc1ccc(-c2n[nH]c(=S)n2CC(C)C)cc1 | 0% | -4% | -6% | 18% | -3% | 2% | 0.2% | -7%
O=C(CSc1ccc(F)cc1)NC1CCCCC1 | . | -2% | . | 77%[activator] | -1% | 0% | . | .
